Bioassay records from PubChem BioAssay.
RGS12 GoLoco inh = blocks human Gai1 binding to RGS12 GoLoco peptide, red readout; 0.44% of 230,000 active; Gai1:RGS12 GoLoco peptide FP, rhodamine, 10 min; Potency, µM (doses to about 61.6 µM), for inactives: top-dose activity, negative = inhibition, usual class: inhibitors; active = well fitted inhibition curve with a large enough effect, not every such curve was filed as active; inactive = no such curve, though single readings can be large or run the other way; note: % is set by controls: 0 for no effect and ±100 for the full control effect; nearly all actives have a fitted effect of over 30% in size; many of its hits are not listed in these tables
Target sequence (P63096 whole entry, looked up): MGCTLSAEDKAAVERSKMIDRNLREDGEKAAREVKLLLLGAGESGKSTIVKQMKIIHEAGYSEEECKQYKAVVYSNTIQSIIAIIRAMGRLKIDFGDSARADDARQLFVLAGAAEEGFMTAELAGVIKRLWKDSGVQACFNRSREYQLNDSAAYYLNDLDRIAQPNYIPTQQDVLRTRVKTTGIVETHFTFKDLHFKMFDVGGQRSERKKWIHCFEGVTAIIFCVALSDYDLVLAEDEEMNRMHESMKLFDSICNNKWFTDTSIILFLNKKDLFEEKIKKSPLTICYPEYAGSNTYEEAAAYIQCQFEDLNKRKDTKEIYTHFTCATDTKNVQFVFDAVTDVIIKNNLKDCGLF
Luc counter = Kinase-Glo luciferase inhibition (counter-screen); Q27757; Potency, µM (doses to about 38.3 µM), without a hit: at the top dose activity change, negative = inhibition, actives largely listed as inhibitors; AID 1379; 0.28% of 200,000 active; Kinase-Glo luciferase, ATP luminescence, 8 min; note: % is set by controls: 0 for no effect and ±100 for the full control effect; nearly all actives have a fitted effect of over 60% in size
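Light output from Kinase-Glo luciferase with luciferin and 10 uM ATP in 50 mM imidazole pH 7.2, KCl, MgCl2, Tween 20, BSA; compound pin-delivered, 8-min ambient incubation, then luminescence read.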
RECQ1 inh = blocks DNA unwinding by human RECQ1. AID 2549. RECQ1 DNA unwinding, red fluorescence kinetic read. P46063. 0.54% of 240,000 active. Potency, µM (series often up to 57.3 µM), inactives show top-dose activity, negative = inhibition, hits mostly inhibitors;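 note: plate controls were vehicle for no effect and no enzyme for full effect; nearly all actives have a fitted effect of over 30% in size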
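50 nM RECQ1T1 preincubated 15 min with compound in Tris pH 8.0 buffer with MgCl2, DTT, Tween-20 and 2.5 ug/ml poly(dI-dC); started with 200 nM TAMRA/BHQ-2 forked duplex and 2 mM ATP. Unwinding read as fluorescence (525/598 nm), two reads 2 h apart.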
SMN2 splice enh = SMN2 splice variant enhancement | HEK293 SMN2-luciferase splicing reporter, luminescence, 30-36 h | Potency, µM (titrated, usually from 46.1 µM), without a hit: at the highest dose activity change, positive = activation, hits mostly activators | 2.8% of 210,000 active; note: % of control where 0% means no effect; nearly all actives have a fitted effect of over 55% in size
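HEK293 cells carry an SMN2 […]–luciferase reporter in which exon 7 inclusion puts luciferase in frame. Cells were plated 10-12 h before compound addition, then incubated 30-36 h at 37C. ONE-Glo luminescence was read; sodium butyrate at 4.5 mM final served as control.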
KDM4E inh = blocks human JMJD2E demethylase activity | 1.6% of 230,000 active | Potency, µM (highest dose often 57.1 µM), without a hit: top-dose activity change, negative = inhibition, hits mostly inhibitors | JMJD2E catalytic domain, FDH-coupled NADH fluorescence (FDH is formaldehyde dehydrogenase) | B2RXH2 | AID 2147; active = well fitted inhibition curve with a large enough effect, not every such curve was filed as active; inconclusive = small, poorly fitted or top-dose-only effect, or another doubt; inactive = no such curve, though single readings can be large or run the other way;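 note: 0% = wells with enzyme and -100% = buffer wells without enzyme; nearly all actives have a fitted effect of over 50% in size; many of its hits are not listed in these tables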
Target sequence (B2RXH2 1-337 limits assumed): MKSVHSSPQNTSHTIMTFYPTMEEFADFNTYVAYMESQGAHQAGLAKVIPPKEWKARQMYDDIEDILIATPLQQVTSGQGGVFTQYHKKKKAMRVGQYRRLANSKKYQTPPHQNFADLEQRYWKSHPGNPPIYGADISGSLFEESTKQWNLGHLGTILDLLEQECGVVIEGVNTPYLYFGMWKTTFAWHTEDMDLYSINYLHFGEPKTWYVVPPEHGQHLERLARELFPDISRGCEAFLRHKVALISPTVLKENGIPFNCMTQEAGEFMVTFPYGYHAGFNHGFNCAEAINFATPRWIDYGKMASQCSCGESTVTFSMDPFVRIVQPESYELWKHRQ
NPSR antag = antagonists of human neuropeptide S receptor cAMP signaling; 1% of 220,000 active; Potency, µM (top dose mostly 38.3 µM), for inactives: at the highest dose activity change, negative = inhibition, hits mostly inhibitors; CHO-NPSR cells, cAMP TR-FRET, antagonist mode; Q6W5P4; note: % is set by controls: 0 for no effect and ±100 for the full control effect; nearly all actives have a fitted effect of over 50% in size; many of its hits are not listed in these tables
Epigenetic derep = epigenetic control regulation, reporter derepression. murine LDR cells, GFP reporter derepression, 30 h. Potency, µM (top dose mostly 53.9 µM), for the others: at the highest dose GFP activation, usual class: activators. 0.2% of 280,000 active. AID 1865; note: % of control where 0% means no effect; nearly all actives have a fitted effect of over 60% in size
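GFP-positive cell count by laser-scanning cytometry (objects 20–120 um) after 30 h, 37 C compound exposure of murine LDR cells; reporter is CMV-GFP integrated at a silenced locus, inducible by HDAC or DNMT inhibitors.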
* = called active by the depositor; i = inactive; ? = inconclusive; . = not tested or not shown; [ ] = another dose, or the depositor's remark. Unless noted, calls come from the whole dose curve; as a rule, active = well fitted curve in the direction sought with a large enough effect; inconclusive = small, poorly fitted or top-dose-only effect, or another doubt; inactive = no such curve, though single readings can be large; an effect the other way counts as inactive or inconclusive. Potency is the fitted concentration of half-maximal effect.

Compound	RGS12 GoLoco inh	KDM4E inh	Epigenetic derep	RECQ1 inh	SMN2 splice enh	NPSR antag	Luc counter
O=C1c2cccc(O)c2C(=O)c2c(O[C@@H]3O[C@H](CO)[C@@H](O)[C@H](O)[C@@H]3O)cccc21	-10%[14.2 µM]	.	.	.	-4%[9.22 µM]	.	0%[7.66 µM]
CCn1c(CNc2ccc(OC)cc2)nnc1SCC(=O)N1CCCc2ccccc21	8%	1%	0.3%	?	0%	-1%[7.67 µM]	0%
CC1CCCC(C)N1C(=O)Cn1cc(/C=C2/C(=O)Nc3ccccc32)c2ccccc21 (stereo not given)	6.3µM*	3%	-4.3%	-8%	-16%	?	-5%
Cc1c(OCC(=O)OC(C)C)ccc2c3c(c(=O)oc12)CCC3	5%	?	1.1%	0%	.	6%[46.1 µM]	0%
O=C(N/C(=C\c1ccc([N+](=O)[O-])cc1)C(=O)N1CCOCC1)c1ccccc1	1%	-3%	-3.1%	8%	-13%	-15%	0%
COc1ccc(C2=NN(C)C(=NCc3ccccc3)SC2)cc1	-8%	0%	-1.2%	i	-26%	-8%[46.1 µM]	0%
O=C(N/N=C/c1ccc(O)c(O)c1)c1ccc(CSc2cccc3cccnc23)cc1	-3%	?	6.9%	11µM*	-7%	-16%[46.1 µM]	-3%
O=C(CCN1C(=O)c2ccccc2C1=O)N1CCN(C2c3ccccc3-c3ccccc32)CC1	-1%	2%	-2.2%	-9%	19%	-18%[46.1 µM]	0%

More compounds:
Compound	RGS12 GoLoco inh	KDM4E inh	Epigenetic derep	RECQ1 inh	SMN2 splice enh	NPSR antag	Luc counter
CC(C)COC(=O)Nc1nnc(SCCOc2ccccc2)s1	10%	-5%	-1.0%	-4%	-16%	-7%[46.1 µM]	-2%
C/C(N)=C(/C#N)C(=O)COC(=O)CNC(=O)c1ccc(Cl)cc1Cl	10%	-2%	-3.4%	6%	7%	2%	3%
O=C(O)CSc1nnc(Cn2c(=O)sc3ccccc32)n1-c1cccc(Cl)c1	6%	3%	-1.8%	8%	-8%	8%[46.1 µM]	-2%
COc1cc(NS(C)(=O)=O)c(OC)cc1NC(=O)c1cccc(F)c1	-11%	5%	-0.1%	i	28%	-5%[46.1 µM]	0%
O=C(NC1=NCCS1)c1cc(-c2ccc(-c3ccccc3)cc2)nc2ccccc12	6%	?	3.8%	-7%	-7%[1.84 µM]	-15%	-4%
O=C(CNC1CCCC1)Nc1ccc(N2CCCCCC2)cc1	-3%	8.9µM*	0.0%	-1%	-4%	-24%	3%
Cc1cc(C)nc(N/N=C/C2=C(N3CCOCC3)C(=C/c3ccccc3)/CC2)n1	57%[activator]	-6%	0.0%	-4%	-105%[inhibitor]	?	-2%
CCC(C)(C)NC(=O)CC(c1ccc(OC)cc1)n1cccc1 (stereo not given)	4%	5%	-1.1%	8%	-11%	-10%[46.1 µM]	-2%

11 structures out of the list, ordered by SMILES length, descending:
Compound	RGS12 GoLoco inh	KDM4E inh	Epigenetic derep	RECQ1 inh	SMN2 splice enh	NPSR antag	Luc counter
O=C(CCN1C(=O)c2ccccc2C1=O)N1CCN(C2c3ccccc3-c3ccccc32)CC1	-1%	2%	-2.2%	-9%	19%	-18%[46.1 µM]	0%
CC1CCCC(C)N1C(=O)Cn1cc(/C=C2/C(=O)Nc3ccccc32)c2ccccc21 (stereo not given)	6.3µM*	3%	-4.3%	-8%	-16%	?	-5%
Cc1cc(C)nc(N/N=C/C2=C(N3CCOCC3)C(=C/c3ccccc3)/CC2)n1	57%[activator]	-6%	0.0%	-4%	-105%[inhibitor]	?	-2%
O=C(N/N=C/c1ccc(O)c(O)c1)c1ccc(CSc2cccc3cccnc23)cc1	-3%	?	6.9%	11µM*	-7%	-16%[46.1 µM]	-3%
O=C(NC1=NCCS1)c1cc(-c2ccc(-c3ccccc3)cc2)nc2ccccc12	6%	?	3.8%	-7%	-7%[1.84 µM]	-15%	-4%
O=C(O)CSc1nnc(Cn2c(=O)sc3ccccc32)n1-c1cccc(Cl)c1	6%	3%	-1.8%	8%	-8%	8%[46.1 µM]	-2%
C/C(N)=C(/C#N)C(=O)COC(=O)CNC(=O)c1ccc(Cl)cc1Cl	10%	-2%	-3.4%	6%	7%	2%	3%
CCn1c(CNc2ccc(OC)cc2)nnc1SCC(=O)N1CCCc2ccccc21	8%	1%	0.3%	?	0%	-1%[7.67 µM]	0%
Cc1c(OCC(=O)OC(C)C)ccc2c3c(c(=O)oc12)CCC3	5%	?	1.1%	0%	.	6%[46.1 µM]	0%
CCC(C)(C)NC(=O)CC(c1ccc(OC)cc1)n1cccc1 (stereo not given)	4%	5%	-1.1%	8%	-11%	-10%[46.1 µM]	-2%
O=C(CNC1CCCC1)Nc1ccc(N2CCCCCC2)cc1	-3%	8.9µM*	0.0%	-1%	-4%	-24%	3%

Other results
Compound	RGS12 GoLoco inh	KDM4E inh	Epigenetic derep	RECQ1 inh	SMN2 splice enh	NPSR antag	Luc counter
O=C(NCCCn1ccnc1)c1cc2c(ccc3ccccc32)o1	11%	?	-0.4%	2%	13%	-15%	0%
CC1(C)C([N+](=O)[O-])C(c2ccccc2O)NC(c2ccccc2O)C1[N+](=O)[O-] (stereo not given)	-1%	-14%	0.0%	-15%	.	18%	-3%
Cn1c(CCN2CCN(c3ccccc3)CC2)nc2cc(NC(=O)c3ccco3)ccc21	-7%	2%	1.7%	-8%	-14%	-5%[46.1 µM]	4%
CCn1c2ccccc2c2cc(NC(=O)C(C)C)ccc21	12%	-11%	-1.1%	i	-5%	24%[46.1 µM]	0%
COc1ccc(OCCSc2nnnn2C2CCCCC2)cc1	3%	-5%	-1.0%	i	18%	-11%[46.1 µM]	1%
Cc1ccc(S(=O)(=O)N(c2nc(NC(C)C)nc(NC(C)C)n2)n2cnnc2)cc1	-1%	-6%	0.0%	6%	-4%	-13%	1%
C[C@@H](C(=O)NCc1ccc(C(F)(F)F)nc1)[C@H]1C[C@]1(C)[C@H](NC(=O)OCc1ccccc1)c1ccccc1	2%	?	8.6%	-12%	-16%	.	-4%
O=C(Nc1nc2ccc(Cl)cc2s1)C1CCCO1 (stereo not given)	0%	9%	0.1%	1%	22µM*	-7%[46.1 µM]	-3%

Next structures.
Compound	RGS12 GoLoco inh	KDM4E inh	Epigenetic derep	RECQ1 inh	SMN2 splice enh	NPSR antag	Luc counter
O=S(=O)(Nc1ccc(S(=O)(=O)N2CCCCC2)cc1)c1cccs1	5%	5%	1.1%	14%	?	14%[46.1 µM]	0%
CN1CCN(C(=S)c2cn(Cc3ccccc3F)c3ccccc23)CC1	6%	18%	1.1%	-15%	27%	-31%	-1%
CCOC(=O)CN1CC23C=CC(O2)C(C(=O)NC2CCCCC2)C3C1=O (stereo not given)	8%	1%	0.8%	-3%	-9%	-7%[46.1 µM]	-1%
Cc1nc(NS(=O)(=O)c2ccccc2)sc1NC(=O)OC(C)C	-7%	-2%	-1.1%	1%	-4%	-5%[46.1 µM]	1%
COc1ccc(NC(=S)Nc2ccccc2)cn1	5%	-19%	-0.9%	-3%	-16%[1.84 µM]	15%	-2%
CN(C)c1ccc(O)c2c1C[C@H]1C[C@H]3[C@@H](N(C)C)C(=O)C(C(N)=O)=C(O)[C@]3(O)C(=O)C1=C2O	-1%[21.6 µM]	?	0.0%[16.9 µM]	-4%[25.9 µM]	-15%[20.6 µM]	.	0%[17.1 µM]
COC(=O)C1=C(C)N(C(C)c2ccccc2)C(=O)C1 (stereo not given)	7%	-2%	-1.0%	-15%	3%	35%	1%
C/C(=N\NC(=O)CCn1nc(C)cc1C)C(C)(C)C	-3%	21%	1.1%	-13%	16%	9%	0%

Additional results follow:
Compound	RGS12 GoLoco inh	KDM4E inh	Epigenetic derep	RECQ1 inh	SMN2 splice enh	NPSR antag	Luc counter
Cc1ccccc1NC(=S)N(CCCN1CCOCC1)Cc1cccnc1	4%	8%	-0.2%	-11%	15%	9%	-4%
Cc1cccc(C(=O)OC2CCN(C)CC2)c1	13%	-20%	3.1%	-3%	.	-7%	-2%
Cc1cc(Cl)ccc1C(=O)C1CCCN(C(=O)c2cscn2)C1 (stereo not given)	14%	-21%	1.0%	-5%	.	2%	1%
Cn1c(Nn2cnnc2)nc2ccccc21	5%	2%	0.0%	1%	5%	15%[46.1 µM]	1%
C#C[C@]1(O)CCC2C3CCC4=Cc5oncc5C[C@@]4(C)C3CC[C@@]21C (stereo not given in full)	-27%	0%	1.3%	9%	-12%	.	0%
COc1cc2ccccc2cc1C(=O)Nc1ccc(Cc2ccncc2)cc1	11%	?	0.7%	-8%	-4%	?	-1%
COc1cccc(CN(C)CC(=O)Nc2cccc(C(F)(F)F)c2)c1OC	-9%	-9%	2.6%	0%	-64%[inhibitor]	-20%	5%
O=C(/C=C\c1ccco1)Nc1nc(-c2ccccc2)cs1	20%	-7%	1.0%	3%	?	19%	-5%

New compounds follow:
Compound	RGS12 GoLoco inh	KDM4E inh	Epigenetic derep	RECQ1 inh	SMN2 splice enh	NPSR antag	Luc counter
Cc1nnnn1-c1cccc(C(=O)O)c1	9%	4%	-1.0%	i	3%	2%[46.1 µM]	19%
O=C(NCc1cn(-c2ccccc2)nc1-c1ccccc1)c1cccc([N+](=O)[O-])c1	-4%	3%	-1.6%	-20%	4%	-23%	-1%
COC(=O)C1=C(C(=O)OC)C(c2cc(Cl)ccc2O)c2sc(=O)[nH]c2S1 (stereo not given)	-5%	-12%	-0.9%	-7%	2%	-10%[46.1 µM]	2%
Cc1ccc(-c2cc(C(F)F)nc(N3CCOCC3)n2)cc1	-3%	?	1.0%	i	-8%	-31%	1%
FC(F)(F)c1cc(-c2ccco2)nc2ncnn12	4%	?	0.0%	7%	-18%	5%	-1%
CCc1ccc(Cn2nnc(C(=O)NCc3ccccc3OC)c2N)cc1	5%	-2%	2.9%	-5%	-2%	-14%[46.1 µM]	5%
O=C(NC1CCS(=O)(=O)C1)c1c(NC(=O)C2COc3ccccc3O2)sc2c1CCCC2 (stereo not given)	8%	-10%	14%	-11%	?	-13%[46.1 µM]	-1%

This is a subset; the hit share may differ from the screen's.
